NPYLR7 agonist: mosquito NPYLR7 agonism; HEK293T NPYLR7/Galpha15, GCaMP6s calcium fluorescence; activation, % at 10 µM; 0.15% of 270,000 active; AID 1259423; in the data active means activation above about 40%;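 further: 0% = vehicle and 100% = reference agonist at the receptor; some compounds past the cut are filed as inactive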
NPYLR7 agonist max-min: further read-out of NPYLR7 agonist, marked with its call; activation, %; measured here: Max-Min RFU normalised activation; some inactives read as strong as hits;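 span of the calcium signal over five minutes; 0% = vehicle and 100% = native peptide agonist; compound fluorescence can raise it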
* marks the source's active call; other numbers are inactive results; & = joins results of further samples. The list is partial; count on the stated rates, not on these rows.

SMILES	NPYLR7 agonist	NPYLR7 agonist max-min
CCC1(O)CCCN(c2nc(C)nc3c2CCN(C(C)=O)CC3)C1 (stereo not given)	2.5	-5.4
O=C1C(=O)N(CCN2CCOCC2)C(c2cccc(Br)c2)C1=C(O)c1ccc(F)cc1 (stereo not given)	0.8	6.2
Cn1c(=O)c2cc(C(=O)O)cnc2n(Cc2ccccc2)c1=O	3.3	3.5
COc1ccc(CCNC(=O)N2CCC3(CC2)OCCc2c3n(C)c3ccccc23)cc1OC	3.8	15.2
Nc1nc(SCC(=O)NC2CCCCC2)nc2sc3c(c12)CCCC3	-5.5	-7.5
Cc1ccc(S(=O)(=O)C(C#N)=C2N(C)c3ccccc3N2C)cc1	1.9	1.3
Cc1nc(CC(=O)Nc2nc(-c3ccc4c(c3)OCO4)cs2)cs1	-2.6	-4.2
S=c1[nH]nc(C23CC4CC(CC(C4)C2)C3)n1CC1CCCO1 (stereo not given)	-2.4	-6.0
Fc1cccc(CN(Cc2ccccc2)Cc2cccn2Cc2cccc(C(F)(F)F)c2)c1	-1.8	2.7
CN(C)CCCN(C(=O)c1ccc2c(c1)OCCO2)c1nc2ccc(F)cc2s1	4.4	1.7
Fc1cccc(F)c1CCC1CCCN(Cc2nnc(C3CC3)o2)C1 (stereo not given)	-3.0	-10.5
CC(Cn1cccn1)NC(=O)Nc1ccc(OCC(F)(F)F)nc1 (stereo not given)	-8.3	-8.4
O=C(NCCOc1ccc2nnc(-c3ccccc3)n2n1)NC1CCCCC1	-3.3	-4.1
C=Cc1ccc(S(=O)(=O)N2CCC(c3cn(CCOCC)c4ccccc34)CC2)cc1	8.4	4.7
N#Cc1ccc(C(=O)N2CCC(n3cnc4cc(C(F)(F)F)ccc43)CC2)cc1	14.2	6.2
CCOCCn1c(=O)c2c(nc3n2CC(C)CN3c2ccc(OC)cc2)n(C)c1=O (stereo not given)	11.6	5.6
CC1=C(C(=O)N(C)C)Sc2nnc(Cc3cccc4ccccc34)n2N1	10.4&6.9	5.3&15.1
Cc1ccc(CCN(CC2CCCO2)C(=O)c2cc[nH]c(=O)c2)cc1 (stereo not given)	12.3	8.3
CCNC(=O)CN(CC)Cc1nnc(C(C)(C)C)o1	-2.1	-3.5
O=C1C(=CC=Cc2ccccc2[N+](=O)[O-])SC(=S)N1c1ccc(O)cc1	1.1	1.1
C[C@@H]1O[C@@H](O[C@H]2[C@@H](Oc3cc(O)c4c(c3)O[C@H](c3ccc(O)cc3)CC4=O)O[C@H](CO)[C@@H](O)[C@@H]2O)[C@H](O)[C@H](O)[C@H]1O	-7.2	-11.5
Cc1cccc2[nH]c(C3CCN(Cc4ncccc4C(=O)O)CC3)nc12	19.9	14.4
CC(=O)Nc1ccc(CN2C(=O)C(C)ON=C2c2ccccc2F)cc1 (stereo not given)	3.6	0.9
Cc1ccc2nc(C)c(NC(=O)C(C)Oc3ccc4c(c3)OCO4)c(=O)n2c1 (stereo not given)	-0.4	-1.5
O=C(C1Cc2ccccc2S1)N1CC[C@H](O)C1 (stereo not given in full)	2.1	-1.3
Cc1cc(C)c(CNC(=O)N2CCN(c3nc(C)cs3)CC2)c(C)c1	5.4	1.6
CC(C)Cc1cnc2c(c1SCc1ccccc1)c(=O)n(C)c(=O)n2C	0.0	0.3
C=CCCC(=O)N1c2cccc3c2[C@@H](C[C@H]1C(=O)NC)CN(CCOC)C3=O	-0.1	6.0
CCCSc1nc(N2CCCC2)c2c(c1C#N)CC(C)(C)OC2	4.0	1.0
C=CCN(CC=C)c1cc(Cl)nc(SCc2ccc(C(=O)Nc3ccc(C)cc3)cc2)n1	-2.4	4.1
O=C(Cc1cccc2ccccc12)NCC(c1ccsc1)N1CCCC1 (stereo not given)	-1.7	-11.3
O=C(NCc1cccnc1)c1cccc(Nc2c(Oc3cccc(Cl)c3)cnn(-c3ccc(F)cc3)c2=O)c1	4.8	9.0
COC(=O)C1CN(Cc2ccccc2)C(=O)CN1C(C)=O (stereo not given)	11.2	6.1
Cc1csc(NC(=O)CSc2nc3[nH]ncc3c(=O)[nH]2)n1	-4.2	-4.9
O=C(CSc1nnc(CNC(=O)c2ccco2)n1-c1ccc(F)cc1)Nc1nccs1	3.2	3.4
Fc1ccc(C=NNc2ccc(C(F)(F)F)cn2)c(F)c1	-6.3	-11.4
Fc1ccc(OCc2nc(-c3ccc(Br)o3)no2)c(F)c1	-3.7	-4.2
CC(CNC(=O)NCc1ccc(S(C)=O)cc1)c1cccs1 (stereo not given)	-1.1	-1.1
COCCNC(=O)C1(C)CCN(Cc2ccc3ccccc3c2Br)C1 (stereo not given)	3.1	-2.4
CN(CCc1ccccc1)C1(C(=O)O)Cc2ccccc2C1	7.4	4.2

Entries of single compounds as entered above. Order of values: NPYLR7 agonist, NPYLR7 agonist max-min
Results for Fc1ccc(OCc2nc(-c3ccc(Br)o3)no2)c(F)c1 → -3.7, -4.2
Results for COC(=O)C1CN(Cc2ccccc2)C(=O)CN1C(C)=O (stereo not given) → 11.2, 6.1

Next part
SMILES	NPYLR7 agonist	NPYLR7 agonist max-min
CCC(C)c1nnc(C2(c3ccc(Br)cc3)CCOCC2)o1 (stereo not given)	7.3	7.1
CCN(CC)c1ccc2cc(-c3nnc(Nc4cc(Cl)ccc4OC)s3)c(=O)oc2c1	5.7	10.2
CCN1CC(CN(C)Cc2c(C(=O)N3CCCC3)nc3sccn23)CC1=O (stereo not given)	-8.5	-14.7
CCCN(Cc1ccc(C#N)cc1)C(=O)C1CNC(=O)N1 (stereo not given)	-2.8	-2.7
O=C1NCCN1c1ccc(F)c(C(=O)N2CCCC2c2ccco2)c1 (stereo not given)	3.2	3.1
Cc1cc(OCc2ccccc2)c2c(C)c(CC(=O)O)c(=O)oc2c1	13.2	-4.2
Clc1ccc2c(c1)C1=C(C=Nn3c(nnc3-c3ccccc3)S1)CO2	-4.6	-7.0
Cc1ccc(C)c(-n2cnnc2SCC(=O)N(C)c2ccccc2)c1	-6.7	10.6
CCn1ncnc1CN1CCC(c2n[nH]c(=O)n2Cc2ccccc2)CC1	-7.8	-8.7
COc1ccc(C(=O)Nc2c(C)nc3scc(C)n3c2=O)c(OC)c1	11.0	-1.6
Cc1cc(C)c(S(=O)(=O)NC(C)c2ccccc2)c(C)c1 (stereo not given)	-1.7	-7.8
Cc1cccc(C2c3cccn3-c3ccccc3N2C(=O)CN(C(=O)c2ccccc2F)C2CC2)c1 (stereo not given)	-1.6	10.5
COc1cccc(C(=O)Nc2c3c(nn2-c2ccc(C)cc2)CS(=O)C3)c1OC (stereo not given)	0.4	-1.7
Cc1ccnc(NCCNC(=O)c2cc(C)[nH]n2)c1	9.9	9.8
COCCCn1ccc2c(nnc3c(-c4ccccc4)c(COC)nn32)c1=O	6.9	5.9
Cc1ccc(C(c2ccccc2)N2CCN(C(=O)c3ccc(N(C)C)cc3)CC2)cc1 (stereo not given)	-2.6	2.4
Cc1nccn1CC1CCCN(Cc2nc3ccccc3n2C)C1 (stereo not given)	-4.3	-9.3
CCOC(=O)NC1CCCN(C(=O)NCCc2cccc3ccccc23)C1 (stereo not given)	7.8	5.0
Cc1ccc(C)c(CSc2ncc(CO)n2CC(=O)NC(C)C)c1	4.0	-0.3
Cc1ccc(O)c(C(=O)N(C)Cc2nccn2C)c1	10.2	7.9

Exported with values under each structure: 14 of the compounds above
The line under a structure holds: NPYLR7 agonist, NPYLR7 agonist max-min
O=C1NCCN1c1ccc(F)c(C(=O)N2CCCC2c2ccco2)c1 (stereo not given)
    3.2, 3.1
Cc1cc(OCc2ccccc2)c2c(C)c(CC(=O)O)c(=O)oc2c1
    13.2, -4.2
Clc1ccc2c(c1)C1=C(C=Nn3c(nnc3-c3ccccc3)S1)CO2
    -4.6, -7.0
Cc1ccc(C)c(-n2cnnc2SCC(=O)N(C)c2ccccc2)c1
    -6.7, 10.6
CCn1ncnc1CN1CCC(c2n[nH]c(=O)n2Cc2ccccc2)CC1
    -7.8, -8.7
COc1ccc(C(=O)Nc2c(C)nc3scc(C)n3c2=O)c(OC)c1
    11.0, -1.6
Cc1cc(C)c(S(=O)(=O)NC(C)c2ccccc2)c(C)c1 (stereo not given)
    -1.7, -7.8
Cc1cccc(C2c3cccn3-c3ccccc3N2C(=O)CN(C(=O)c2ccccc2F)C2CC2)c1 (stereo not given)
    -1.6, 10.5
COc1cccc(C(=O)Nc2c3c(nn2-c2ccc(C)cc2)CS(=O)C3)c1OC (stereo not given)
    0.4, -1.7
Cc1ccnc(NCCNC(=O)c2cc(C)[nH]n2)c1
    9.9, 9.8
COCCCn1ccc2c(nnc3c(-c4ccccc4)c(COC)nn32)c1=O
    6.9, 5.9
Cc1ccc(C(c2ccccc2)N2CCN(C(=O)c3ccc(N(C)C)cc3)CC2)cc1 (stereo not given)
    -2.6, 2.4
Cc1nccn1CC1CCCN(Cc2nc3ccccc3n2C)C1 (stereo not given)
    -4.3, -9.3
CCOC(=O)NC1CCCN(C(=O)NCCc2cccc3ccccc23)C1 (stereo not given)
    7.8, 5.0

Continuation:
SMILES	NPYLR7 agonist	NPYLR7 agonist max-min
CCn1c(C)cc(C(=O)Cn2cnc3sc(C)c(C)c3c2=O)c1C	6.0	7.9
COc1ccccc1CCNC(=O)CN1CN(c2ccccc2)C2(CCN(C(=O)C3C[C@H]3c3ccccc3)CC2)C1=O (stereo not given in full)	0.4	5.6
CC(C)C(=O)Nc1cc(-n2cnnc2)ccc1F	33.2	25.9
Cc1cc(=O)[nH]c(SCc2nc3ccccc3s2)n1	-24.5	-26.5
O=C1NC2(CCCC2)C(=O)N1CCS(=O)(=O)Oc1ccc(Cl)cc1Cl	6.0	6.1
O=C(O)c1ccc2cc[nH]c2c1	-1.2&1.3	6.8&-0.5
O=C(Nc1cccc2c1CCCC2)c1cc(C2CCCCN2C(=O)OCCF)on1 (stereo not given)	18.8	10.7
CCC(c1nc2ccccc2c(=O)n1-c1ccccc1OC)N(Cc1ccccc1)C(=O)CC(C)CC(C)(C)C (stereo not given)	-4.6	-2.3
CC(C=Cc1ccccc1)=NNc1ccc([N+](=O)[O-])cc1	8.4	13.9
NCCc1ccc(S(N)(=O)=O)s1	5.7&6.3	0.4&11.4
CC(C)CN1C(=O)N(C)C(=O)C12CCN(Cc1nc(-c3ccccc3)cs1)CC2	14.3	3.7
c1ccc(CC2c3nc[nH]c3CCN2Cc2cccc3nonc23)cc1 (stereo not given)	0.6	7.5
CC(C(=O)N(C)CC(=O)Nc1cc(C(C)(C)C)ccc1O)n1cccn1 (stereo not given)	-1.9	21.4
CCCNC(=O)c1nnc2n1CCN(C(=O)C(CC)c1ccccc1)C2 (stereo not given)	6.6	4.9
COc1cc2nc(-c3cccc(Br)c3)oc(=O)c2cc1OC	2.0	9.5
CC(C)CN(CC(=O)N1CCc2sccc2C1COc1ccccc1F)C(=O)c1cccc(Cl)c1 (stereo not given)	-1.7	2.5
COCCN1C[C@@H]2C[C@@H](C(N)=O)N(C(=O)C3CC3)c3cccc(c32)C1=O	2.8	13.5
COc1cccc(C(C[N+](=O)[O-])c2c(C)[nH]n(-c3ccccc3)c2=O)c1 (stereo not given)	4.4	0.0
Cc1cccc(-n2c(SCc3ccc(C(=O)NCC(C)C)cc3)nnc2-c2cccs2)c1	9.3	16.8
CC(c1cccc(-c2ccc(Cl)c(C(=O)O)c2)c1)N1CCCC1 (stereo not given)	5.6	4.1
CC1CCN(C(=O)CCc2csc(NC(=O)c3ccc[nH]c3=O)n2)CC1	-4.7	-9.4
O=C1C(N2CC[C@@H](O)C2)CCCN1c1ccc(OC(F)F)cc1 (stereo not given in full)	3.7	2.9
CCc1[nH]nc(NC(=O)c2cncc(C)c2)c1Br	11.8	8.6
CCC(C)C(C(=O)OCc1nc(N)nc(N)n1)c1ccccc1 (stereo not given)	-2.1	-1.7
O=C(C1=COCCO1)N(CCn1cccn1)c1nc2c(F)cccc2s1	-15.1	-22.2
Cn1c(=O)c2c(nc(N3CCOCC3)n2Cc2ccccc2Cl)n(C)c1=O	-6.0	6.7
CC(NC(c1ccc2c(c1)OCCO2)C(C)C)C(=O)Nc1ccc(C#N)cc1 (stereo not given)	0.9	-0.9
COc1ccccc1CCC(=O)Nc1cnn(CC(=O)NC2Cc3ccccc3C2)c1	18.1	6.2
O=C1OC(c2ccc(Cl)cc2)=N/C1=C\N1CCCCC1	-3.9	-7.5
N#CC(=C(O)CSc1nnc2sc3ccccc3n12)c1nc2ccccc2[nH]1	4.7	1.6
CC(C)(C)CC(C)(C)Nc1c(-c2ccccc2)nc2ccc(Br)cn12	14.4	12.7
O=C(Nc1cc(Cl)ccc1-c1nc2ccccc2[nH]c1=O)c1cccc(F)c1	-1.8	-1.3
NC(=O)N/N=C1/CCCCC(O)CCC1 (stereo not given)	-3.3	-3.5
CCC(=O)NCCn1c(C)cc2ccccc21	-0.7	-4.6
CCOc1ccccc1C(=O)NCc1ccc(-c2ncc(-c3ccc(F)cc3)[nH]2)cc1	-8.2	-9.6
CCS(=O)(=O)Oc1cc(CN(CCOC)C(=O)c2ccco2)ccc1OC	21.1	15.5
CO/N=C(/C(=O)O)c1cn2cc(Br)ccc2n1	2.0	3.3
COC(=O)c1c(NC(=O)CC2Sc3ccccc3NC2=O)sc2c1CCC(C)C2 (stereo not given)	-2.9	-9.2
CN1C(C(=O)NCC2CCCO2)=CC(c2cccs2)=NS1(=O)=O (stereo not given)	2.2	-1.8
O=C(c1ccc(-c2ncn[nH]2)cc1)N1CCCC(CCc2c(F)cccc2F)C1 (stereo not given)	-0.2	-3.6
C=CCN(Cc1nccn1Cc1ccc(F)c(F)c1)C(=O)c1ccc(F)cc1	1.1	7.6
Cc1ccccc1CN1CCC(CN(Cc2cccnc2)C(=O)C2=NN(C)C(=O)CC2)CC1	7.0	2.8
Cc1cc(C)n2nc(SC(C)C(=O)N(C)C3CCCCC3)nc2n1 (stereo not given)	0.0	-0.2
CCCCNC(=O)C1(C)CCN1C(=O)c1cc(-c2cccs2)oc1C (stereo not given)	-5.2	-4.9
Cc1ccnc(N2CCCC(Cc3ccc(F)cc3F)(C(=O)O)C2)n1 (stereo not given)	0.7	-1.4
CCc1nc(Sc2ccc(C=O)cc2[N+](=O)[O-])n[nH]1	2.3	1.2
CN(C(=O)c1cn(Cc2ccc(Cl)cc2)nn1)C1CCCc2ccccc21 (stereo not given)	22.5	9.4
O=C(Cc1csc(Nc2ccccc2)n1)NCCC1=CCCCC1	10.0	0.5
Cn1c(SCC(=O)NC2CC2)nc2sc3c(c2c1=O)CCCC3	-3.3	2.7

Screens: PubChem, Fisher Drug Discovery Resource Center
